Source: PubChem BioAssay
Wee1 degr inh – human Wee1 degradation inhibition, primary screen; HeLa Luc-Wee1K328M stability, luciferase luminescence; 100% = proteasome inhibitor MG132 effect; reporter increase, % at 5 µM; actives 1.2% (n = 220,000);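 active = activation above the mean of all tested compounds plus 3 SD, set per screening run, cut at about 8.8% in these data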;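 also: cells exposed to compound for 20 h before luminescence read; 0% = DMSO alone and 100% = MG132 at 30 µM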
Target sequence (P30291 whole entry K328M): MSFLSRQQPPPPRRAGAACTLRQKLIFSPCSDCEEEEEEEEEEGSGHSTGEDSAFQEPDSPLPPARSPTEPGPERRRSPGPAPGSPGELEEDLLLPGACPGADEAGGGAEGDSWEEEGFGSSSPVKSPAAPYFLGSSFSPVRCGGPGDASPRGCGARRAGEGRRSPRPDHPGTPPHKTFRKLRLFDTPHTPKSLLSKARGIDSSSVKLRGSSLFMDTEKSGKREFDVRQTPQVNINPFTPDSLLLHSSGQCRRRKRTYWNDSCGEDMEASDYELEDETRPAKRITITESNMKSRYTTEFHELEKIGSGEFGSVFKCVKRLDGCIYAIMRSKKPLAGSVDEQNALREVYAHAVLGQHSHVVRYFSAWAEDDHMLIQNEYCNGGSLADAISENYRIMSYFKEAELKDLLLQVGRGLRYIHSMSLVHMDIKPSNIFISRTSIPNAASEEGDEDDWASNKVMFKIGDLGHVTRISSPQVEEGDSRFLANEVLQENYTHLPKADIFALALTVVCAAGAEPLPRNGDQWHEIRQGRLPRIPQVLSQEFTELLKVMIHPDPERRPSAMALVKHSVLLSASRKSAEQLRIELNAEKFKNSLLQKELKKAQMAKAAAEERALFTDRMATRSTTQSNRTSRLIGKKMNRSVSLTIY
Mdm2 ligase inh – Mdm2 E3 ligase (human) inhibition; signal enhancement, % at 5 µM; Q00987; cell-based MDM2 ubiquitination luciferase reporter, 2 h; 0 = plate control, 100 = twice control, blank-subtracted; actives 0.11% (n = 210,000);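 active = signal enhancement of 30% or more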;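 also: luminescence tracks abundance of the self-degrading MDM2-luciferase fusion protein; higher signal means inhibition of MDM2 E3 ligase activity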
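Assay system: stable mammalian line carrying autodegrading MDM2–luciferase fusion reporter; Input: 2000 cells in each well; Compound dosing: single-point 5 µM; Schedule: 2 h compound exposure at 37 °C; Signal: SteadyLite luciferase luminescence after 15 min room-temperature reagent incubation; Evaluation: % luminescence enhancement versus blank-corrected plate control mean; Benchmarks: plate controls and plate blanks.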
p97 inhibitor – human p97 ATPase inhibition; P55072; inhibition, % at 8 µM; recombinant p97 ATPase, Kinase-Glo ATP luminescence, 3 h; actives 0.42% (n = 220,000); in the data active = inhibition above about 15%;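 also: 0% = DMSO vehicle and 100% = wells lacking enzyme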
eIF4E-4G inh – eIF4E/eIF4G interaction inhibition in translation initiation; inhibition, % at 21.7 µM; TR-FRET eIF4E-eIF4GI(517-606) binding, 2 h; actives 0.37% (n = 220,000); P63073+Q04637;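 active = inhibition above about 30%, limit read from the data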;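 also: 0% = full FRET control wells and 100% = background wells lacking eIF4GI fragment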
14-3-3 Bad PPI – disrupts binding of bovine 14-3-3 zeta to phospho-Bad peptide; P63103; TR-FRET 14-3-3zeta/Dy647-pBad peptide displacement, 1 h; inhibition, % at 21.7 µM; actives 0.71% (n = 220,000); AID 781;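 active = inhibition above about 70%, limit read from the data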;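 also: 0% = full 14-3-3 plus peptide FRET controls and 100% = background without 14-3-3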
hK5 inh – inhibitors of human kallikrein 5; actives 0.59% (n = 210,000); Q9Y337; inhibition, % at 5 µM; recombinant hK5, fluorogenic AMC substrate cleavage;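 active = inhibition of 40% or more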;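 also: 0% = enzyme controls without compound and 100% = no-enzyme blanks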
Rad51 HR inh – Rad51 (human) homologous recombination inhibition; inhibition, % at 10 µM; actives 0.085% (n = 200,000); hRad51 DNA strand exchange, fluorescence dequenching; Q06609;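 active = inhibition above 40% at the single screening dose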;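 also: 0% = DMSO control wells and 100% = blanks with heterologous ssDNA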
Target sequence (Q06609 whole entry, looked up): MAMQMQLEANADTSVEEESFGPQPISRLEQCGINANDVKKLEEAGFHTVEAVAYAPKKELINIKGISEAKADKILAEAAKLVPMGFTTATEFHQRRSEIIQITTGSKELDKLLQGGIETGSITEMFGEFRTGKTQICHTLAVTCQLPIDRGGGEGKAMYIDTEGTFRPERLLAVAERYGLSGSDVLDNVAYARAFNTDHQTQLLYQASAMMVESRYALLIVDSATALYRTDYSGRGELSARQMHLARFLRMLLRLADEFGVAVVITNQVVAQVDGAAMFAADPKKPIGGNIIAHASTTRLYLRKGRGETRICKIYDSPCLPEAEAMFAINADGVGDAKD
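Read-out basis: percent inhibition relative to plate controls and blanks / Assay system: human Rad51 nucleoprotein filaments preassembled on unlabelled ssDNA / Timing: filaments 15 min 37 °C, then compound 30 min / Control set: per-plate controls and blanks / Technique: fluorescence dequenching at 485/520 nm / Compound: 10 µM final, single point / Also added: Fluorescein- and BHQ1-tagged 47-mer duplex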
* marks the source's active call; other numbers are inactive results; . = not tested or not shown; [ ] = remark or other dose. Not all compounds are listed (hit frequency here may not be typical).

Under each structure – hK5 inh, Mdm2 ligase inh, Wee1 degr inh, p97 inhibitor, eIF4E-4G inh, 14-3-3 Bad PPI, Rad51 HR inh
1. Cc1cc(-c2cc(-c3ccccc3)on2)nc(NCC2CC2)n1
→ 0, -2, ., ., -3, -1, 3
2. Cc1cc2cc(C#N)c(NCCNC(=S)NCCCN3CCOCC3)nc2cc1C
→ -7, -3, 1, -1, -3, 8[fluorescence artefact?], 7
3. COc1ccc(-c2nc(N)n(C(=O)c3ccccc3Cl)n2)cc1
→ -12, -5, 1, -5, -23, 10, -2
4. O=c1c2c3c(sc2n2cnnc2n1-c1ccccc1)N(Cc1ccccc1)CCC3
→ -29, -12, -2, 3, -5, -18[fluorescence artefact?], -6
5. Cc1cnn(C(=S)NCC2CCCO2)c1 (stereo not drawn)
→ 2, -34, -4, 0, 0, 5, 0
6. COc1ccccc1NC(=O)N(Cc1ccccc1)C1=NCC(C)S1 (stereo not drawn)
→ 4, -21, -2, 4, 7, -5, 0
7. c1ccc2oc(SCc3nc4ccccc4s3)nc2c1
→ -3, -5, 1, -10, -2, -2[fluorescence artefact?], 1
8. S=c1[nH]nc(COc2ccccc2)n1/N=C/C(Cl)=C/c1ccccc1
→ -6, -6, -2, -6, 7, -11, -1
9. CCOC(=O)N1CCN(C(=S)NC(=O)C2CCCC2)CC1
→ 2, ., 0, 9, 0, -4, -9
10. COc1ccc(NC(=O)c2cccnc2Nc2ccccc2)cc1
→ -2, -5, 2, 0, -7, 3, 1
11. S=c1[nH]nc(-c2ccncc2)n1/N=C/C(Cl)=C\c1ccccc1
→ 1, -10, -3, 6, -1, -15, .
12. CCNC(=O)CC1C(=O)N(c2ccc(F)cc2)C(=O)N1Cc1ccc(OC)cc1 (stereo not drawn)
→ -11, 0, -2, 3, 3, 8, -7
13. O=C(NCCOc1nc(N2CCCCC2)nc(N2CCCCC2)n1)Nc1ccccc1
→ ., -2, -1, 2, 1, -5, -10
14. O=C(O/N=C1\CCS(=O)(=O)c2sccc21)C1CC1
→ -33, -8, -1, 1, 1, -7, 8
15. COc1ccc(-c2cnn(C3CCS(=O)(=O)C3)c2N)cc1 (stereo not drawn)
→ 0, -9, -1, 8, -1[fluorescence artefact?], 5[fluorescence artefact?], -1
16. N/C(=N\OC(=O)c1ccco1)c1cccc(Br)c1
→ -10, -23, 8, -1, -7[fluorescence artefact?], -8[fluorescence artefact?], -4
17. COc1ccccc1N1CN(CCc2ccccc2)CNC1=S
→ 5, -30, -1, 3, 1, 2, 21
18. Cc1ccc(S(=O)(=O)n2nc(OC(=O)C(C)(C)C)cc2N)cc1
→ 3, -3, -3, 4, 4, 3, -6
19. O=C(NCc1ccco1)C1(S(=O)(=O)c2ccc(Cl)cc2)CC1
→ -24, -9, -1, 2, 0, 7, -5
20. CC(=O)Oc1oc(-c2ccccc2)nc1C=Nc1ccccc1
→ 6, 1, -4, 3, -4, 4, -6

For convenience, part of the list above:
Under each structure – hK5 inh, Mdm2 ligase inh, Wee1 degr inh, p97 inhibitor, eIF4E-4G inh, 14-3-3 Bad PPI, Rad51 HR inh
17. COc1ccccc1N1CN(CCc2ccccc2)CNC1=S
→ 5, -30, -1, 3, 1, 2, 21
18. Cc1ccc(S(=O)(=O)n2nc(OC(=O)C(C)(C)C)cc2N)cc1
→ 3, -3, -3, 4, 4, 3, -6

Later entries.
Under each structure – hK5 inh, Mdm2 ligase inh, Wee1 degr inh, p97 inhibitor, eIF4E-4G inh, 14-3-3 Bad PPI, Rad51 HR inh
21. O=C(/C=C/c1cn(-c2ccccc2)nc1-c1cccs1)NCCN1CCOCC1
→ -9, -9, 2, -4, -1, 8, 27
22. COC(=O)c1ccc(OC(=O)c2nn(C)cc2Cl)c(OC)c1
→ 3, 12, -1, -4, 4, -6, 3
23. Cn1c(=NC(=O)CSCC(=O)N2CCOCC2)sc2ccccc21
→ -18, -13, 2, 6, 4[fluorescence artefact?], -25[fluorescence artefact?], 7
24. COc1ccc(-c2cc(C(F)(F)F)c3c(n2)sc2c(O)cc(=O)[nH]c23)c(OC)c1
→ -10, 1, -2, 4, 15, -11, -332
25. O=C(c1ccco1)N1CCN(C(=O)c2ccc(COc3ccc(F)cc3)o2)CC1
→ -10, -18, -3, 2, 7, -10, -2
26. CCNC(=O)CC1C(=O)N(c2ccc(F)cc2)C(=O)N1Cc1cccs1 (stereo not drawn)
→ 13, 2, 4, 3, 4, -6, 9
27. COc1ccc2[nH]c(C)c(C(=O)CN(C)CC3OCCO3)c2c1
→ 2, ., -3, 6, -3, -3, .
28. O=C(Nc1nccs1)c1cn2ccccc2n1
→ 27, -64, -1, -14, -5, -3, -8
29. Cc1ccc(S(=O)(=O)N2CCCCC2)cc1NC(=O)CSc1ncn[nH]1
→ ., ., -2, 6, 3, -2, .
30. C/C(=N\NC(=S)Nc1ccc(F)cc1)c1ccc2c(c1)OCCO2
→ -34, -10, 2, 7, 1, -21, 2
31. O=C(O/N=C1\CCS(=O)(=O)c2sccc21)c1ccc(F)cc1
→ -2, 0, -4, 3, -3, -9, 7
32. CC(=O)Oc1ccc2c(C)cc(=O)oc2c1C(=O)c1ccccc1
→ 3, -9, -2, 9, 4[fluorescence artefact?], 6, .
33. COc1ccc(C2CC23N=C(c2ccccc2)OC3=O)cc1 (stereo not drawn)
→ 14, 4, -2, -7, -33, 17, 8
34. CC(C)(C)c1ccc(C(=O)NC(=S)Nc2nc3c(s2)CCCC3)cc1
→ -15, -30, -3, 5, 4[fluorescence artefact?], 2, -4
35. COc1ccc(CC(=O)NC(C)c2nnc(SCC(=O)c3ccc(OC)cc3)n2C)cc1 (stereo not drawn)
→ ., -5, -1, -1, 0, 9, 18
36. CC(=O)c1c(C)[nH]c(C(=O)COC(=O)CNS(=O)(=O)c2ccccc2)c1C
→ -21, 3, 1, 4, -4, -4[fluorescence artefact?], 6
37. COc1ccc(C2NC(c3ccc(OC)c(OC)c3OC)C(C)C(=O)C2C)c(OC)c1OC (stereo not drawn)
→ -23, -2, 3, -8, 2, 7, -7
38. CCc1ccc(OCC(=O)NCCN(C)C)c(Br)c1
→ -5, -15, 2, -1, -6, 4, -6
39. COc1ccccc1OCC(=O)c1[nH]c(C)c(C(C)=O)c1C
→ -4, -15, 3, 7, 3, 8, -3
40. O=C(CSc1nnc(COc2ccccc2)n1-c1ccccc1)c1cccs1
→ -11, -4, -1, -3, 0, -5, -6

Next structures
Under each structure – hK5 inh, Mdm2 ligase inh, Wee1 degr inh, p97 inhibitor, eIF4E-4G inh, 14-3-3 Bad PPI, Rad51 HR inh
41. C=CCc1ccc(OCc2ccc(C(=O)OC)o2)c(OC)c1
→ -10, -10, 0, -4, -11, 3, -1
42. Cc1cc(-c2csc(NC(=O)c3ccc(=O)[nH]c3)n2)c(C)n1Cc1ccco1
→ -5, -10, -3, 51*, 46*, 45, -6
43. CCNC(=O)CC1C(=O)N(c2ccc(F)cc2)C(=O)N1CCc1ccc(OC)cc1 (stereo not drawn)
→ -10, 6, -1, -1, 5[fluorescence artefact?], 3, -4
44. Cn1c(C(=O)O)cc2c(=O)n3ccccc3nc21
→ -15, ., 0, 1, -11, 16, 8
45. CCOc1ccccc1-n1c(SCC(=O)NCc2ccco2)nnc1-c1ccncc1
→ 2, -17, -3, 3, -2, 4, -2
46. CCCOC(=O)c1ccc(O)c(OC)c1
→ 9, 45*, 3, -4, 2, -5, -6
47. c1ccc2c(c1)CCCN2Cc1nnnn1C1CCCC1
→ 5, -12, 2, -9, 3, 1, -21
48. N#CC(C#N)C(c1ccsc1)c1c(-c2ccccc2)[nH][nH]c1=O (stereo not drawn)
→ -3, -19, -4, 0, 9, -5, -2
49. COc1ccc(N2CCN(C(CNC(=O)c3cccc(Cl)c3)c3cccnc3)CC2)cc1 (stereo not drawn)
→ -2, -15, -2, -4, -1, 6, 7
50. CS(=O)(=O)n1nc(OC(=O)c2cccs2)cc1N
→ 15, ., 1, 4, 0, 3, 2
51. CCOc1ccc(NC(=O)c2cnsn2)cc1
→ 4, -6, -3, 1, -7, -3, 3
52. COc1ccc(N=Cc2nc(-c3ccco3)oc2O)cc1
→ -10, -12, 1, -2, 2, -5, 3
53. CCC(=O)NS(=O)(=O)c1cccnc1Nc1ccccc1Cl
→ -6, -14, 1, 1, 7, -14, .
54. COc1ccc(C=C(C(C)=O)C(C)=O)cc1OC
→ -4, 1, 1, 8, 6[fluorescence artefact?], -3[fluorescence artefact?], -2
55. CCOC(=O)N1CCN(C(=O)CN(c2cccc(OC)c2)S(C)(=O)=O)CC1
→ 3, -21, 2, 4, 9, 13, -7
56. CCCC(=O)n1nc(-c2ccco2)nc1N
→ -11, -11, -2, -1, -5, 6, -2
57. Cc1nn(-c2ccccc2)c2[nH]c(=O)c(CNCCN3CCOCC3)cc12
→ -13, -7, 0, 4, 8, -4, 6
58. COc1ccccc1NC(=O)CN1CCC(n2c(C)nc3cc(F)ccc32)CC1
→ -1, 4, -1, 7, 4, -9, -4
59. CCn1c2ccccc2c2cc(NC(=O)COC(=O)c3cc(OC)c(OC)cc3OC)ccc21
→ -11, -9, 1, 4, 4, -4, -5
60. NC(=O)c1ccc(NC(=O)COC(=O)C2(c3ccccc3F)CCCC2)cc1
→ 2, -5, 0, -2, -3, 1, -6
61. Cc1ccc(S(=O)(=O)Nc2ccc3nc(C)sc3c2)cc1
→ 7, -12, 0, -6, 3, -12, 6
62. Cc1cccc(-n2c(=O)c3c4c(sc3n3c(=S)[nH]nc23)CCC4)c1
→ -3, -2, -1, -4, 32*, -4, 1

Structural class, the entries above containing a furan ring, fused or not (8)
Under each structure – hK5 inh, Mdm2 ligase inh, Wee1 degr inh, p97 inhibitor, eIF4E-4G inh, 14-3-3 Bad PPI, Rad51 HR inh
16. N/C(=N\OC(=O)c1ccco1)c1cccc(Br)c1
→ -10, -23, 8, -1, -7[fluorescence artefact?], -8[fluorescence artefact?], -4
19. O=C(NCc1ccco1)C1(S(=O)(=O)c2ccc(Cl)cc2)CC1
→ -24, -9, -1, 2, 0, 7, -5
25. O=C(c1ccco1)N1CCN(C(=O)c2ccc(COc3ccc(F)cc3)o2)CC1
→ -10, -18, -3, 2, 7, -10, -2
41. C=CCc1ccc(OCc2ccc(C(=O)OC)o2)c(OC)c1
→ -10, -10, 0, -4, -11, 3, -1
42. Cc1cc(-c2csc(NC(=O)c3ccc(=O)[nH]c3)n2)c(C)n1Cc1ccco1
→ -5, -10, -3, 51*, 46*, 45, -6
45. CCOc1ccccc1-n1c(SCC(=O)NCc2ccco2)nnc1-c1ccncc1
→ 2, -17, -3, 3, -2, 4, -2
52. COc1ccc(N=Cc2nc(-c3ccco3)oc2O)cc1
→ -10, -12, 1, -2, 2, -5, 3
56. CCCC(=O)n1nc(-c2ccco2)nc1N
→ -11, -11, -2, -1, -5, 6, -2
